Screens (PubChem)
Vaccinia mCherry: qHTS for Stage-Specific Inhibitors of Vaccinia Orthopoxvirus: mCherry Reporter Primary qHTS; actives 0.63% (n = 310,000); AID 720579, 2013; Potency, µM (titrated, usually from 36.5 µM), for the others: top-dose activity change, negative = inhibition, usual class: inhibitors; Vaccinia virus mCherry reporter infection, fluorescence; about a quarter of the inactives have no number; active = well fitted inhibition curve with a large enough effect; inconclusive = small, poorly fitted or top-dose-only effect; inactive = no such curve, though single readings can be large or run the other way; tested in A549 cells; note: nearly all actives have a fitted effect of over 35% in size; inactives centre near -10
Vaccinia Venus: qHTS for Stage-Specific Inhibitors of Vaccinia Orthopoxvirus: Venus Reporter Primary qHTS | AID 720580, 2013 | actives 0.46% (n = 330,000) | Vaccinia virus Venus reporter expression, fluorescence | Potency, µM (doses to about 36.5 µM), for inactives: at the highest dose activity change, negative = inhibition, hits mostly inhibitors; active means well fitted inhibition curve with a large enough effect; inconclusive means small, poorly fitted or top-dose-only effect; inactive means no such curve, though single readings can be large or run the other way; tested in A549 cells; note: nearly all actives have a fitted effect of over 30% in size; inactives centre near -10
The depositor's hits bear a star; & = joins results of further samples; [ ] = another dose, or the depositor's remark. % is set by controls: 0 for no effect and ±100 for the full control effect; potency is the fitted concentration of half-maximal effect.

`COc1ccc(Br)cc1S(=O)(=O)n1ccnc1C` gave Vaccinia mCherry -5% and Vaccinia Venus -6%.
COc1cc(NC(=O)[C@H]2O[C@@H](n3ccc(N)nc3=O)[C@H](O)[C@@H]2O)cc(OC)c1OC was read as Vaccinia mCherry 49%[activator] and Vaccinia Venus -6%.
COc1ccc(-n2ncc(C(C)NS(=O)(=O)c3cc(C)sc3C)c2C)cc1 (centres undefined) was read as Vaccinia mCherry inconclusive and Vaccinia Venus -23%.
Cc1ccc(CN(C(=O)COc2ccc(C(C)C)cc2)C2CCS(=O)(=O)C2)o1 (centres undefined) was read as Vaccinia mCherry -17% and Vaccinia Venus -17%.
Screening COc1cccc(C(=O)Nc2ccc3oc(-c4cccc5c(Br)cccc45)nc3c2)c1 returned Vaccinia mCherry -20% and Vaccinia Venus -3%.
Screening O=C(NCc1ccncc1)Nc1cccc([N+](=O)[O-])c1 returned Vaccinia mCherry -6% and Vaccinia Venus -19%.
Screening CCN(CC)C(=O)Cn1cnc2sc(C(=O)Nc3cc(OC)c(OC)c(OC)c3)c(C)c2c1=O returned Vaccinia mCherry -13% and Vaccinia Venus -3%.
CC(C)(C)n1nnnc1C(c1ccccc1)N1CCN(c2ccccc2)CC1 (centres undefined) was read as Vaccinia mCherry -2% and Vaccinia Venus -5%.
For O=C(O)CN1C(=O)C=CC1=O the results were Vaccinia mCherry -11% and Vaccinia Venus -8%.
`CCC(C)Cn1c(C(C)C)nc2ccccc21` (centres undefined) gave Vaccinia mCherry inactive and Vaccinia Venus -5%.
`O=C(NC1CC1)c1cccc(NC(=O)C2CCCCC2)c1` gave Vaccinia mCherry 5% and Vaccinia Venus 3%.
`CCc1c(C)c(C#N)c2nc3ccccc3n2c1NCCCN(C)C` gave Vaccinia mCherry 6% and Vaccinia Venus -13%.
For CCOC(=O)c1cn[nH]c1NC(=S)Nc1ccc(OC)cc1 the results were Vaccinia mCherry -9% and Vaccinia Venus -17%.
`C=CCn1c(SCC(=O)Nc2ccccc2)nnc1-c1cccc(S(=O)(=O)N2CCOCC2)c1` gave Vaccinia Venus -3%.
Screening O=C(CSc1ccc2nnc(-c3ccccn3)n2n1)Nc1ccc(F)cc1F returned Vaccinia mCherry -14% and Vaccinia Venus -7%.
Screening Cn1c(SCC(=O)Nc2cccnc2)nnc1-c1ccccc1F returned Vaccinia mCherry 4% and Vaccinia Venus -4%.
O=C(CN1CC(=O)Oc2ccccc21)OCC(=O)c1ccc(F)cc1 was read as Vaccinia mCherry -19% and Vaccinia Venus 6%.
Screening COc1ccc(CN(C)C(=O)c2ccccc2Sc2ccccc2C#N)cc1OC returned Vaccinia mCherry -15% and Vaccinia Venus -12%.
COc1ccc(Cl)cc1NC(=S)NCCSc1ccc(C)cc1 was read as Vaccinia mCherry inactive and Vaccinia Venus -13%.
For CCC(CO)N=CC1=C(O)CC(c2ccccc2)CC1=O (centres undefined) the results were Vaccinia mCherry inactive and Vaccinia Venus -12%.
`C=C(C)C(O)COc1c2occc2c(OC)c2ccc(=O)oc12` (centres undefined) gave Vaccinia mCherry inactive and Vaccinia Venus -2%.
Screening O=C(CSc1nc2ccccc2o1)NC(=O)NCc1ccccc1 returned Vaccinia mCherry -19%[1.46 µM] and Vaccinia Venus -2%.
Screening OC(COCCC12CC3CC(CC(C3)C1)C2)CN1CCCCC1 (centres undefined) returned Vaccinia mCherry inactive and Vaccinia Venus -15%.
Screening CN(CCNC(=O)c1ccc(/C=N/O)nc1)Cc1ccccc1 returned Vaccinia mCherry -14% and Vaccinia Venus -9%.
Screening C[N+]12CCC(CC1)C(C(O)(c1ccccc1)c1cccs1)C2 (centres undefined) returned Vaccinia mCherry inactive and Vaccinia Venus 0%.
`Cc1cccc(N(CC(N)=O)C2SC(=O)N(Cc3cccc(C(=O)O)c3)C2=O)c1` (centres undefined) gave Vaccinia mCherry -11% and Vaccinia Venus 4%.
For O=C(Nc1ccc([N+](=O)[O-])cn1)C1CCCCC1 the results were Vaccinia mCherry -9% and Vaccinia Venus -17%.
COc1ccccc1NS(=O)(=O)c1cc(NC(=O)CNC(=O)c2ccccc2)ccc1C was read as Vaccinia mCherry -20% and Vaccinia Venus -23%.
Cc1cccc(NC(=O)c2onc3c2CCCC3)n1 was read as Vaccinia mCherry inactive and Vaccinia Venus -14%.
For CNc1cncc(-c2cccc(C(=O)NCCN(C)C)c2)n1 the results were Vaccinia mCherry 5% and Vaccinia Venus -5%.
`Cc1csc(C(=O)O)c1-c1c(C)csc1C(=O)O` gave Vaccinia mCherry -12% and Vaccinia Venus -16%.
For Cc1cccc(NCC(O)Cn2cnc3c2c(=O)n(C)c(=O)n3C)c1 (centres undefined) the results were Vaccinia mCherry inactive and Vaccinia Venus -9%.
For CC(C)CNS(=O)(=O)c1ccc(CCC(=O)N2CCC(C(N)=O)CC2)cc1 the results were Vaccinia mCherry -7% and Vaccinia Venus -11%.
For Cc1cc(Cl)ccc1NC(=S)N1CCN(C(=O)c2ccco2)CC1 the results were Vaccinia mCherry -14% and Vaccinia Venus -5%.
O=C(O)/C=C/c1ccc2c(-c3ccccc3)onc2c1 was read as Vaccinia mCherry -9% and Vaccinia Venus -15%.
`COc1ccccc1C(C)NC(=O)CCOc1cccc(C)c1` (centres undefined) gave Vaccinia mCherry -15% and Vaccinia Venus -8%.
Screening CCc1c(O)nc(SCC(=O)Nc2ccc(C)cc2)n(C2CCCCC2)c1=O returned Vaccinia mCherry -15% and Vaccinia Venus -7%.
CC(C)OCCCNC(=O)Cn1ccc2cc(S(=O)(=O)N3CCCCC3)ccc21 was read as Vaccinia mCherry -1% and Vaccinia Venus -14%.
Screening Cc1ccc(Nc2ncnc3nc[nH]c23)cc1 returned Vaccinia mCherry -8% and Vaccinia Venus -21%.
CCCCn1c(NS(=O)(=O)c2ccc(C)cc2)c(C(=O)OCC)c2nc3ccccc3nc21 was read as Vaccinia mCherry -14% and Vaccinia Venus 7%.
`Cc1cc(C)c(NC(=O)C2CCN(C(=O)c3ccco3)CC2)c(C)c1` gave Vaccinia mCherry 8% and Vaccinia Venus 10%.
`Cc1ccc(-c2nc(SCC(=O)Nc3cc(C)on3)c3c(=O)n(C)c(=O)n(C)c3n2)cc1` gave Vaccinia mCherry -27% and Vaccinia Venus -14%&-17%.
Screening CCOC(=O)c1c(S(=O)(=O)N2CCC(C(=O)N3CCN(c4ccc(F)cc4)CC3)CC2)c(C)n(C)c1C returned Vaccinia mCherry -12% and Vaccinia Venus -11%.
`CCCC(=O)Nc1ccc(C(=O)N/N=C/c2ccc([N+](=O)[O-])o2)cc1` gave Vaccinia mCherry inconclusive and Vaccinia Venus inconclusive.
Screening COc1ccc(NC(=O)CNS(=O)(=O)c2ccc(Cl)cc2)cc1OC returned Vaccinia mCherry -18% and Vaccinia Venus -7%.
`CC1(C(=O)Nc2ccc3[nH]ncc3c2)CCN1C(=O)CC(c1ccccc1)c1ccccc1` (centres undefined) gave Vaccinia mCherry -10% and Vaccinia Venus -12%.
`O=C1CC(Nc2ccccc2)C(=O)N1Cc1ccccc1` (centres undefined) gave Vaccinia mCherry -3% and Vaccinia Venus -13%.
`Cc1nc2cc(NS(=O)(=O)c3cccc(F)c3)ccc2s1` gave Vaccinia mCherry inactive and Vaccinia Venus 0%.
O=C(NCCN1CCCC1)c1cccc(Cl)c1 was read as Vaccinia mCherry inactive and Vaccinia Venus 11%.
Cc1ccccc1C(=O)NCC(C)NC(=O)c1ccccc1C (centres undefined) was read as Vaccinia mCherry -19% and Vaccinia Venus -8%.
Screening COC(=O)c1ccc(CN2C(=O)c3ccccc3C2=O)o1 returned Vaccinia mCherry inactive and Vaccinia Venus -13%.
CC(C)n1c(SCC(=O)NC2CC2)nnc1-c1ccco1 was read as Vaccinia mCherry -11% and Vaccinia Venus -7%.
Screening Cc1oc(CC(C)C)cc1C(N)=O returned Vaccinia mCherry -1% and Vaccinia Venus -2%.
Screening O=C(COC(=O)CCOc1ccccc1)Nc1cc(S(=O)(=O)N2CCCCC2)ccc1Cl returned Vaccinia mCherry -13% and Vaccinia Venus -12%.
Screening O=C(c1cccs1)N1CCN(S(=O)(=O)c2cccc(Cl)c2Cl)CC1 returned Vaccinia mCherry -26% and Vaccinia Venus -20%.
`O=C(CSCc1ccccc1Br)N/N=C/c1ccc(OCC(=O)N2CCCCC2)cc1` gave Vaccinia mCherry -8% and Vaccinia Venus -8%.
Screening CN1CC(=O)N(CC(=O)Nc2ccc3c(c2)CCC3)C1=O returned Vaccinia mCherry inactive and Vaccinia Venus 0%.
CC(=O)Nc1sc2c(c1C(c1ccccc1)N1CCOCC1)CCCC2 (centres undefined) was read as Vaccinia mCherry -20% and Vaccinia Venus -17%.
`CC(=O)Nc1ccc(S(=O)(=O)N(C)CCOCc2ccccc2)cc1` gave Vaccinia Venus -14%.
`CCN1CCN(Cc2nc3ccc([N+](=O)[O-])cc3c(=O)n2-c2ccc(OC)cc2OC)CC1` gave Vaccinia mCherry -7% and Vaccinia Venus -12%.
COc1ccc(CCNC(C)CCc2ccc(OC)cc2)cc1 (centres undefined) was read as Vaccinia mCherry -15% and Vaccinia Venus -25%.
For CC1(c2nnc(-c3ccc(F)cc3)o2)CC(c2ccc([N+](=O)[O-])cc2)=NO1 (centres undefined) the results were Vaccinia mCherry -11% and Vaccinia Venus -17%.
For O=C(CSCc1ccccc1)N1CCN(Cc2ccc3c(c2)OCO3)CC1 the results were Vaccinia mCherry -24% and Vaccinia Venus -18%.
Screening C#C[C@]1(O)CC[C@H]2[C@@H]3CCc4cc(OC)ccc4[C@H]3CC[C@@]21C returned Vaccinia mCherry inactive and Vaccinia Venus -25%.
`COc1ccc(Cn2nnnc2C(C(C)C)N2CCN(c3ccccc3OC)CC2)cc1` (centres undefined) gave Vaccinia Venus inconclusive.
Cc1cc(N)c(-n2cc3c(=O)n(C)c(=O)n(C)c3c2)cc1C was read as Vaccinia Venus inconclusive.
For CCN(CC)c1ccc(NC(=O)C(Cc2ccccc2)NS(=O)(=O)c2ccc(Br)s2)c(C)c1 (centres undefined) the results were Vaccinia mCherry -8% and Vaccinia Venus -7%.
`O=c1c2sc3ccccc3c2n(Cc2cccc(F)c2)c(=O)n1Cc1ccccc1` gave Vaccinia mCherry -18% and Vaccinia Venus -14%.
COc1cccc(-c2nnc(SCC(=O)N3CCC(C)CC3)o2)c1 was read as Vaccinia mCherry -15% and Vaccinia Venus -7%.
`CCCN(CC(=O)Nc1ccccc1C)C(=O)c1ccc(S(=O)(=O)N2CCCC2)cc1` gave Vaccinia mCherry -17% and Vaccinia Venus -16%.

Compounds listed so far with fluorine, in the order listed:
Screening O=C(CSc1ccc2nnc(-c3ccccn3)n2n1)Nc1ccc(F)cc1F returned Vaccinia mCherry -14% and Vaccinia Venus -7%.
Screening Cn1c(SCC(=O)Nc2cccnc2)nnc1-c1ccccc1F returned Vaccinia mCherry 4% and Vaccinia Venus -4%.
O=C(CN1CC(=O)Oc2ccccc21)OCC(=O)c1ccc(F)cc1 was read as Vaccinia mCherry -19% and Vaccinia Venus 6%.
Screening CCOC(=O)c1c(S(=O)(=O)N2CCC(C(=O)N3CCN(c4ccc(F)cc4)CC3)CC2)c(C)n(C)c1C returned Vaccinia mCherry -12% and Vaccinia Venus -11%.
`Cc1nc2cc(NS(=O)(=O)c3cccc(F)c3)ccc2s1` gave Vaccinia mCherry inactive and Vaccinia Venus 0%.
For CC1(c2nnc(-c3ccc(F)cc3)o2)CC(c2ccc([N+](=O)[O-])cc2)=NO1 (centres undefined) the results were Vaccinia mCherry -11% and Vaccinia Venus -17%.
`O=c1c2sc3ccccc3c2n(Cc2cccc(F)c2)c(=O)n1Cc1ccccc1` gave Vaccinia mCherry -18% and Vaccinia Venus -14%.

The results go on:
COCc1cc(C)nc(Nc2cc(C)ccc2C)c1C#N was read as Vaccinia mCherry -5% and Vaccinia Venus 1%.
CCOc1ccc(Br)cc1S(=O)(=O)N1CCC(C(N)=O)CC1 was read as Vaccinia mCherry -7% and Vaccinia Venus -4%.
Screening CCOC(=O)c1cccc(-n2nnc3c(sc4nc(C)c(Br)c(C)c43)c2=O)c1 returned Vaccinia mCherry -12% and Vaccinia Venus -5%.
`COc1ccc(NC(=O)c2cc(S(=O)(=O)N3CCCC3)ccc2OC)cc1` gave Vaccinia mCherry inactive and Vaccinia Venus -6%.
Screening COCCCNC(=O)C(=O)NCC(c1ccc2c(c1)OCO2)N1CCOCC1 (centres undefined) returned Vaccinia mCherry -6% and Vaccinia Venus 2%.
`Cc1ccc2nc(SCC(=O)N3CCOCC3)[nH]c2c1` gave Vaccinia mCherry -1% and Vaccinia Venus -11%.
`CCCCCC(=O)Nc1cccc(C2=NOC3(C2)C[C@H](C(N)=O)N(C(=O)CC)C3)c1` (some centres undefined) gave Vaccinia mCherry inactive and Vaccinia Venus -15%.
`COc1ccc(C(NC(=O)c2ccc(=O)[nH]c2)C(=O)Nc2ccc(C(C)C)cc2)cc1` (centres undefined) gave Vaccinia mCherry -12% and Vaccinia Venus -7%.
For Cc1ccc(NCc2cccn2-c2nnc(N3CCCCCC3)s2)cc1 the results were Vaccinia mCherry 0% and Vaccinia Venus 3%.
Screening O=C(NCO)c1cccnc1 returned Vaccinia mCherry -4% and Vaccinia Venus 8%&0%.
`C1CCN(CC2CCCCN2)CC1` (centres undefined) gave Vaccinia mCherry -13% and Vaccinia Venus 0%.
Screening COc1ccc(-c2coc3c(C)c4oc(=O)c(CCC(=O)O)c(C)c4cc23)cc1 returned Vaccinia mCherry -29% and Vaccinia Venus -12%.
Screening COc1cccc(-c2cc(C(F)(F)F)nc(NCCc3ccc(OC)c(OC)c3)n2)c1 returned Vaccinia mCherry -5% and Vaccinia Venus -6%.
